Screening results: PubChem, Broad Institute
Tgondii IFNg: T. gondii growth inhibition under IFN-gamma; activity change, negative = inhibition, %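 (about 20 µM by stock and volumes)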; actives 3.8% (n = 69,000); Toxoplasma gondii growth in IFN-gamma-treated host cells; hits give low values; reference of the scale not given here;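 active = below -70%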;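 note: host cells are HeLa cells infected with Toxoplasma gondii; parasite growth read as luciferase light; one replicate is shown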
Numbers without * were called inactive; i = inactive. These rows are one share of the data. The share of hits here may be higher or lower than overall.

mol,Tgondii IFNg
CCOC(=O)c1cc(CSc2nnc(SC)s2)on1,-11
O=C(NCCc1csc(-c2ccc(F)cc2)n1)C(=O)Nc1ccccc1[N+](=O)[O-],34
CCN1c2cc(C)ccc2-n2cccc2C12CCN(C(=O)NCc1ccccc1)CC2,60
CC(C)(C)c1ccc(-c2nn[nH]n2)cc1,i
COc1ccc(-c2nc(NC(C)CCc3ccccc3)c3ccccc3n2)cc1 (stereo not drawn),-43
COC(CNC(=O)c1cnn2ccn(C)c12)c1cccs1 (stereo not drawn),-1
CCc1nc(C)sc1C(=O)NCc1cnn2ccccc12,107
CCN(CC)C(=O)C1Cn2ccnc2C2(CCN(c3ncccn3)CC2)O1 (stereo not drawn),83
Cc1c(Nc2ncnc3sc4c(c23)CCCC4)c(=O)n(-c2ccccc2)n1C,-48
COc1ccc(S(=O)(=O)N2C[C@H](O)COC[C@@H]3O[C@H](CC(=O)N[C@@H]4CCN(Cc5ccccc5)C4)CC[C@H]32)cc1,-7
O=C(c1ccccc1F)N1CCC2(CC1)Nc1cc(F)ccc1-n1cccc12,60
COc1ccc(S(=O)(=O)N(CCc2ccccc2)CC(=O)O)cc1OC,4
CC(=O)Oc1ccc2cc(-c3nc4c(s3)CCc3ccccc3-4)c(=O)oc2c1,3
CCc1ncc2c(n1)CN(C(=O)c1cnnn1-c1ccccc1)C2,14
CN1C[C@@H]2C3(CCN(C(=O)C4CCOCC4)CC3)CC[C@]2(C(=O)N(C)C)C1,-6
O=C(CCc1c[nH]c2ccccc12)N1CCN(C(=O)c2cc(-c3cccnc3)n[nH]2)CC1,42
CCOC(=O)C1C(=O)C(C(=O)OCC)C(c2cccnc2)NC1c1cccnc1 (stereo not drawn),-25
O=C(c1cccnc1)N1CC(=O)N2[C@H](C1)[C@H](c1ccc(-c3ccccc3F)cc1)[C@@H]2CO,-15
Cc1oc2ccccc2c1CNC(=O)Nc1ccc(Br)cc1,-47
Cc1ccc(C2(O)CCN(c3ncccn3)CC2)nc1,2
CC1=NOC(C)(CNC(=O)c2csc(-c3cccs3)n2)C1 (stereo not drawn),-4
C[C@H]1CN2C[C@H](O)CC2CN1Cc1cn(CC(=O)NCc2ccco2)c2ccccc12 (stereo partly drawn),44
Cc1nnc(SCCNC2CCC3(CCNCC3)CC2)s1,-23
Cc1nnsc1CN(C)Cc1ccc2cccc(O)c2n1,3
CCc1ccc(NC(=O)N2CCC3(CC2)Nc2cc(C)ccc2-n2cccc23)cc1,19
CC1Cc2ccccc2N1C(=O)CSc1nnc(-c2ccccc2)c(-c2ccccc2)n1 (stereo not drawn),50
CC(C)CN1C(=O)CCc2cc(NS(=O)(=O)c3ccccc3Br)ccc21,-66
O=C1NC(c2ccccc2)(C(F)(F)F)Sc2nc3ccccc3n21 (stereo not drawn),8
Cc1ccc(CN2C[C@H]3CCCO[C@H]3[C@H](N3CCCC3=O)C2)o1,2
Cc1nc2c(c(=O)n1C)CCN(C(=O)Cc1c[nH]c3ccccc13)CC2,7

Structures shown so far with a furan ring, fused or not, in the order listed:
mol,Tgondii IFNg
Cc1oc2ccccc2c1CNC(=O)Nc1ccc(Br)cc1,-47
C[C@H]1CN2C[C@H](O)CC2CN1Cc1cn(CC(=O)NCc2ccco2)c2ccccc12 (stereo partly drawn),44
Cc1ccc(CN2C[C@H]3CCCO[C@H]3[C@H](N3CCCC3=O)C2)o1,2

Some of the entries so far, as labelled records:
CC1Cc2ccccc2N1C(=O)CSc1nnc(-c2ccccc2)c(-c2ccccc2)n1 (stereo not drawn)
- Tgondii IFNg: 50

O=C1NC(c2ccccc2)(C(F)(F)F)Sc2nc3ccccc3n21 (stereo not drawn)
- Tgondii IFNg: 8

Continuation.
mol,Tgondii IFNg
C/C=C/c1ccccc1[C@H]1[C@@H](C#N)N(c2ncc(CC)s2)[C@@H]1CO,18
Cc1ccsc1-c1nccn1-c1ccc2n[nH]nc2c1,3
COc1ccccc1OC1CN(Cc2cc(C)[nH]n2)C1,-1
C[C@H](CO)N1C[C@H](C)[C@H](CN(C)C(=O)c2ccc3ccn(C)c3c2)OCc2cnnn2CCCC1=O,5
O=C([C@H]1CN(Cc2cccs2)C[C@@H]2OCC[C@@H]21)N1CCCC1,-1
C=CCN1CCN(C)C2(CCN(C(=O)c3cnccn3)CC2)C1=O,2
C[C@H]1CN([C@@H](C)CO)C(=O)c2ccccc2-c2ccccc2CO[C@H]1CN(C)Cc1cccc(C(=O)O)c1,15
O=C(C1=CCCC1)N1CCC(C2(c3cccnc3)NC(=O)N(CCc3cccs3)C2=O)CC1 (stereo not drawn),9
O=C(c1ccc2cccnc2n1)N1CC[C@@H](c2ccc3c(c2)OCO3)[C@H](O)C1,3
CCn1ncc(C(=O)NCc2cncn2CC(C)C)c1C,9
Clc1ccc(-c2nnc(Cc3csc(-c4cccs4)n3)o2)cc1,9
CCc1ccc(OCCCn2nnc3ccccc32)cc1,421
Cc1c(C(=O)N2C[C@@H]3CCCN(C(=O)Cc4ccc(F)cc4)[C@@H]3C2)oc2ccccc12,6
CN(Cc1ccco1)c1ccc(-c2nccn2C)nn1,213
NC(=O)CN1CCC=C(CNC(=O)c2ccc(Cl)cc2Cl)C1,2

The last 4 compounds of the part before lead into the next:
mol,Tgondii IFNg
CCc1ccc(OCCCn2nnc3ccccc32)cc1,421
Cc1c(C(=O)N2C[C@@H]3CCCN(C(=O)Cc4ccc(F)cc4)[C@@H]3C2)oc2ccccc12,6
CN(Cc1ccco1)c1ccc(-c2nccn2C)nn1,213
NC(=O)CN1CCC=C(CNC(=O)c2ccc(Cl)cc2Cl)C1,2
CC1CCN(S(=O)(=O)c2ccc3c(c2)CCC(=O)N3CC(=O)NCC(C)c2ccccc2)CC1 (stereo not drawn),-50
O=C(CN1CCOc2ccccc2C1)NCc1cnn2ccccc12,0
Cc1ccc2c(c1C)-n1cccc1C1(CCN(C(=O)CCC3CCCC3)CC1)N2,33
COCCC1CN(Cc2ccc(S(C)(=O)=O)cc2)CCO1 (stereo not drawn),-7
CCn1ccc2cc(S(=O)(=O)N3CCCC(C(=O)N4CCN(c5ccccn5)CC4)C3)ccc21 (stereo not drawn),-55
O=C1NCC2(CCCN(Cc3ccc(C(F)(F)F)nc3)CC2)O1 (stereo not drawn),49
Cn1nc(C2CCN(C(=O)C3CCOCC3)CC2)n(Cc2ccccc2)c1=O,1
CNC[C@@H]1Oc2ccc(NC(=O)NC3CCCCC3)cc2CC(=O)N([C@H](C)CO)C[C@@H]1C,-6
O=C1CCC2(CCN1)CCN(C(=O)CCn1cnc3ccccc31)CC2,4
O=C(NCc1cccc(F)c1)N1CC[C@H](O)[C@@H]1Cc1cccnc1,-1
CCC(=O)N1[C@H](CO)[C@H](c2ccc(C#CC(C)(C)O)cc2)[C@@H]1CN(C)C(C)=O,-43
CN(C)C(=O)CCCn1cnc(-c2ccccc2)c1-c1cc2ccccc2[nH]1,-6
COc1ccc(CCNC(=O)c2nnn(Cc3nc(-c4ccc(C)cc4)oc3C)c2C)cc1OC,16
COc1cccc(NC(=O)C2Cn3ccnc3C3(CCN(C(=O)C4CCC4)CC3)O2)c1 (stereo not drawn),0
C[C@@H]1CCCCO[C@@H](CN(C)S(=O)(=O)c2ccccc2)[C@H](C)CN([C@H](C)CO)C(=O)c2cc(NC(=O)Nc3ccc4c(c3)OCO4)ccc2O1,-79*
Cc1cc(C)n(CCCn2cncc2-c2ccc3c(c2)CC(C)N3C)n1 (stereo not drawn),1
C1C/C(=N/N=C2\CCCc3nonc32)c2nonc2C1,8
Cc1cc(C)c(S(=O)(=O)N2CCC(C(=O)NCCc3csc(-c4ccccc4)n3)CC2)cc1C,-57
COc1ccc2c3c(n(C)c2c1)[C@H](CO)N(C)CC31CN(C(=O)C2CCC2)C1,61
CN(C)CC(=O)N1CCCc2c(-c3cccnc3)nn(C)c2C1,392
CCn1c(C)cc(C)c(C(=O)Nc2ccc(NC(=O)CC(C)C)c(OC)c2)c1=O,-5
Cc1nnc(CN(C)C(=O)CC(c2ccccc2)c2ccco2)o1 (stereo not drawn),2
O=C(C1CCOCC1)N1CC2(C1)[C@H](c1ccccc1)[C@H](CO)N2C(=O)CC1CC1,0
Cc1cc(=O)[nH]c(SC(C)C(=O)N2CCc3c(ncnc3N(C)C)C2)n1 (stereo not drawn),4
CC(C)(C)[S@@](=O)N1Cc2cc(C(=O)NCc3ccccn3)nc(-c3cccc(-c4ccccc4F)c3)c2[C@H]1CCO,-40
Cc1ccc(NC(=O)CC(=O)N2CCN(CC(C)C)CC2)cc1,2
CCc1cc(CN2CCOc3c(O)cc(-c4cccc(Cl)c4)cc3C2)[nH]n1,-30
COc1ccc(C(=O)N2CCC3(CC2)CC(OCC2CC2)CO3)cc1 (stereo not drawn),50
COc1cccc2c1OCCCN(C(=O)c1ccc(=O)[nH]c1)C2,-4
CN1CCN(c2ncccc2CNC(=O)c2ccc3cccnc3n2)CC1,6
C[C@@H]1CN([C@@H](C)CO)C(=O)Cc2cc(NC(=O)c3ccncc3)ccc2O[C@H]1CN(C)C(=O)Nc1ccc(F)cc1,5
CN(Cc1ncc[nH]1)C(=O)c1ncc(F)cc1F,-7
O=C(Nc1ccccc1)N1CCCC2(CCCN2Cc2ccccc2F)C1 (stereo not drawn),0
Cc1cccc(Nc2nc(C(=O)Nc3cccc(Cl)c3)nc3ccccc23)c1,30
Cc1ccc(NC(=O)C(=O)NCCc2sc(-c3ccc(F)cc3)nc2C)c(C)c1,34
Cc1cccc(C)c1NC(=O)CSC(=O)c1sc2ccccc2c1Cl,9
O=C(c1cccc2[nH]cc(CN3CCCC3)c12)N1CCN(c2ccccn2)CC1,4
CCn1cc(-c2c(-c3ccccc3)ncn2CCNc2cccnc2)c(C)n1,-51
CCO[C@H]1CC[C@@H]2[C@H]1OCCN2C(=O)Cc1ccc2c(c1)OCO2,-2
C[C@H]1CN([C@@H](C)CO)C(=O)CCCn2nncc2CO[C@H]1CN(C)S(=O)(=O)c1cn(C)cn1,189
O=C(NC(Cc1c[nH]c2ccccc12)C(=O)O)c1ccc(Cl)cc1 (stereo not drawn),6
COc1cccc(CC2=NOC(C(=O)N3CCC(Sc4ccc(F)cc4)CC3)C2)c1 (stereo not drawn),12
CN(C)c1ccc(NC(=O)Cn2nc3c(cc2=O)CCc2nc(N4CCCC4)ncc2-3)cc1,26
c1cncc(CN(CCCN2CCOCC2)Cc2ccnc(N3CCSCC3)n2)c1,-17
O=C(CSC1=NC(c2ccccc2)(c2ccccc2)C(=O)N1)Nc1ccc(Cl)cc1,108
CCOc1ccc(NC(=O)N2CCN(Cc3nc(-c4ccc(C)cc4)oc3C)CC2)cc1,1
CN1CC2(CCN(C(=O)c3ccccc3-n3cncn3)C2)OC1=O (stereo not drawn),79
CC(C)Cc1cc(Cn2cnnc2)no1,12
COc1ccc(S(=O)(=O)Nc2ccc3c(c2)C(=O)N([C@H](C)CO)C[C@@H](C)[C@@H](CN(C)Cc2ccc(C(F)(F)F)cc2)OCCCC[C@H](C)O3)cc1,-120*
NC(=O)c1cnc2n1CCN(C(=O)c1cn3ccsc3n1)C2,0
O=C(O)C1C2C=CC(C2)C1C(=O)N(Cc1ccccc1)Cc1ccccc1 (stereo not drawn),-4
Cc1oc(C2CCN(C(=O)c3ccc(C#N)cc3)CC2)nc1C(=O)N1CCCC1,-22
Cn1ccnc1C(NC(=O)CN1C(=O)NC(=O)C1(C)C)C1CC1 (stereo not drawn),-39
O=C(O)[C@H]1C[C@@H](O)CCN1C(=O)C1(c2ccc(Cl)cc2)CC1,-25
O=C(NCC(c1cccnc1)c1c[nH]c2ccccc12)Nc1ccccc1Cl (stereo not drawn),17
CN(Cc1cnc(N2CCCC2)nc1)Cc1nc(-c2cccnc2)no1,7
COc1ccc(NC(=O)C2=C(C)C(=O)OC23CCN(C(C)C)CC3)cc1Cl,53
O=c1[nH]c2cc(Cl)c(Cl)cc2n1-c1ccncc1,-3
O=C(NCCCn1nccc1C1CC1)c1ccccc1C1CCNC1 (stereo not drawn),-1
CCN(CCn1cccn1)Cc1ccc2cccc(O)c2n1,6

The listing continues.
mol,Tgondii IFNg
Nc1nc(SCc2ccc([N+](=O)[O-])cc2)c2ncn(C3OC(CO)C(O)C3O)c2n1 (stereo not drawn),-33
CCn1cc(Cn2ccnc2-c2ccc3occc3c2)cn1,2
CC(=O)N1CCC2(CC1)CC(=O)c1ccc(O)c(O)c1O2,-17
CCCC(=O)Nc1ccc2c(c1)C(=O)N(C)C[C@H](OC)[C@@H](C)CN(Cc1ccc(F)cc1)[C@H](C)CO2,89
Cc1noc(C)c1CN1CCc2c(CN(C)C(C)C)n[nH]c2C1,1
Cc1oc(S(=O)(=O)N2CCCCC2)cc1C(=O)Nc1ccccc1,-50
Cn1c(N2CCN(c3ccc(C(F)(F)F)cn3)CC2)cc(=O)n(C)c1=O,6
CN(Cc1cccc(Cn2cccn2)c1)Cc1cc(-c2ccccc2)no1,8
O=C1N(Cc2ccccn2)C(=O)C2(CCN(CC3CC=CCC3)CC2)N1Cc1ccccc1 (stereo not drawn),-3
